# Assay outcomes as filed in PubChem BioAssay.
# ROMK mod = modulates human ROMK potassium channel activity; B-score at 10 µM; hit rate 2% among 130,000; Tet-inducible ROMK, thallium flux fluorescence; actives lie on both sides;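 active = signal ratio slope over the read window, or its plate-corrected B-score, at least 3 SD from the plate mean, either direction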;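 note: B-score of the F/F0 ratio slope over 7 to 12 s after thallium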
# Target sequence (P48048 whole entry, looked up): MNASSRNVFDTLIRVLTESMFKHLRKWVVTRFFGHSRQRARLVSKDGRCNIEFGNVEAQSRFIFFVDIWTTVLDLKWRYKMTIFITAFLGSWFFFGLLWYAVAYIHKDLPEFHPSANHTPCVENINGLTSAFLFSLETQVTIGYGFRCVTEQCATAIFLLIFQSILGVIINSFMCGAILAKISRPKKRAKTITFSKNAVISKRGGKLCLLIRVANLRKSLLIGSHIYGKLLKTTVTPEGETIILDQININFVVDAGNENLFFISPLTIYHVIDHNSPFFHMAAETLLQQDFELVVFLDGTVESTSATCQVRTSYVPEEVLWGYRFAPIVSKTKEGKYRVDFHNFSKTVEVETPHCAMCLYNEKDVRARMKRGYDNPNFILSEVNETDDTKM
# STAT1 inh = reduces IFN-gamma driven STAT1 reporter signal | NIH 3T3 STAT1-luciferase reporter, luminescence | hit rate 0.35% among 200,000 | inhibition, % at 5.5 µM;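 active = inhibition above a set limit, the mean inhibition across all tested compounds plus 3 SD, cut at about 34% in these data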;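 note: 0% = IFN-gamma with DMSO and 100% = IFN-gamma with 300 µM nifuroxazide; values of inactives mirror those of a sister screen read the other way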
# FLuc act counter = firefly luciferase counter-screen for stimulation assays | ATPlite luciferase biochemical, luminescence, 10 min; 0 = ATP-free wells, 1 = DMSO control | activation factor at 10 µM | 200,000 tested, under 10 active | AID 1027;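 active = luciferase activation factor, scaled between plate controls, of at least 2 with compound at 10 µM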
#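 System: cell-free luciferase reagent; medium: PBS as buffer for the ATP substrate; doses: test compounds dosed from 2 mM stocks in 100% DMSO; incubation: 10 min, room temperature; measured by: luminescence from luciferase reaction; read-out: luciferase activation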
# FLuc inh counter = inhibits firefly luciferase, flagging false hits in luciferase inhibition screens | hit rate 1.5% among 200,000 | ATPLite firefly luciferase biochemical luminescence, 10 min | inhibition, % at 10 µM | P08659;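 active = inhibition above about 50% when tested at 10 µM, limit read from the data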
# STAT3 activator = STAT3 signaling activation; U3A cells, IL-6 STAT3-luciferase reporter, luminescence; 100% = signal with IL-6 EC80 alone; activation (% of control), % at 5.6 µM; hit rate 0.91% among 190,000; AID 871;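 active = activation above the screen-wide mean of compound activation plus 3 SD, cut at about 130% in these data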;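 note: 0% = background luminescence of wells with medium and substrate only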
#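 Test system: STAT3-luciferase reporter U3A cells; Detection: reporter luminescence signal; Times: 1 h compound pre-exposure, 6 h IL-6 stimulation, 37 °C; Benchmarks: IL-6-only high control; Also added: IL-6 stimulus at 33 ng/mL final.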
# The depositor's hits bear a star; · = no result given; & = joins results of further samples.
No.	canonical_smiles	ROMK mod	STAT1 inh	FLuc act counter	FLuc inh counter	STAT3 activator
1	Nc1c2c(nc3ccccc13)CCCC2	·	-3	1.1	-8	96
2	CC/C(=C(/CC)c1ccc(O)cc1)c1ccc(O)cc1	2.3	15	·	·	91
3	O=C(CSc1ccccc1)N1CCc2ccccc21	-1.1	-35	0.8	21	107
4	O=C(Nc1ccc(-c2nc3ccccc3s2)c(O)c1)C1=COCCO1	0.036	-27	0.6	35	108
5	Cc1ccnc2c1NC(=O)c1cccnc1N2C1CC1	-0.16	10	1&1.1	-4&-6	91
6	O=C(Nc1ccc(Br)cc1)Nc1ccccc1F	0.66	-34	0.8	25	79
7	Cc1sc2ncnc(SCC(=O)N3CCN(C(=O)c4ccco4)CC3)c2c1C	·	2	1	-5	106
8	O=C(CSCc1ccccc1)N1CCc2ccccc21	-0.48	-41	0.8	21	106
9	CC(=O)[C@@]1(O)CC[C@H]2[C@@H]3C[C@H](C)C4=CC(=O)C=C[C@]4(C)[C@@]3(F)[C@@H](O)C[C@@]21C	·	-17	1	1	97
10	CNCCc1ccccn1	·	1	1	-3	103

# From entry 4 to 5, as listed above:
No.	canonical_smiles	ROMK mod	STAT1 inh	FLuc act counter	FLuc inh counter	STAT3 activator
4	O=C(Nc1ccc(-c2nc3ccccc3s2)c(O)c1)C1=COCCO1	0.036	-27	0.6	35	108
5	Cc1ccnc2c1NC(=O)c1cccnc1N2C1CC1	-0.16	10	1&1.1	-4&-6	91

# Just STAT3 activator (seven entries from above):
item	SMILES	STAT3 activator
2	CC/C(=C(/CC)c1ccc(O)cc1)c1ccc(O)cc1	91
5	Cc1ccnc2c1NC(=O)c1cccnc1N2C1CC1	91
7	Cc1sc2ncnc(SCC(=O)N3CCN(C(=O)c4ccco4)CC3)c2c1C	106
10	CNCCc1ccccn1	103
8	O=C(CSCc1ccccc1)N1CCc2ccccc21	106
3	O=C(CSc1ccccc1)N1CCc2ccccc21	107
6	O=C(Nc1ccc(Br)cc1)Nc1ccccc1F	79

# The list continues:
No.	canonical_smiles	ROMK mod	STAT1 inh	FLuc act counter	FLuc inh counter	STAT3 activator
11	Cc1ccnc(NS(=O)(=O)c2ccc(N)cc2)n1	·	0	1.1	-5	94
12	c1ccc2sc(SN3CCOCC3)nc2c1	·	-1	0.9	10	125
13	CCOC(=O)c1sc(NC(=O)c2ccc(Br)o2)cc1C	·	-59	0.6	43	99
14	Cc1ccc2c(c1)c(Sc1ccccc1)c(CC(=O)O)n2C	2	15	1	-4	107
15	OCCCN=c1cc(-c2ccccc2)oc2ccc(Cl)cc12	0.37	-30	1	-3	96
16	O=c1[nH]c(=O)n([C@H]2C[C@H](O)[C@@H](CO)O2)cc1F	·	7	1.1	-8	96
17	O=C(COc1ccc(F)cc1Br)N1CCc2ccccc21	·	-71	0.6	43	88
18	CC(C)CN=c1cc(-c2ccccc2)oc2ccc(Cl)cc12	·	-30	1	-3	94
19	CN(C)CCN(Cc1ccc(Cl)cc1)c1ccccn1	·	7	1	-3	85
20	Cc1ccc2nc(NC(=O)c3ccc4c(c3)OCO4)sc2c1	·	-68	0.6	38	94
21	CCc1cccc2c3c([nH]c12)C(CC)(CC(=O)O)OCC3 (stereo not drawn)	·	-4	1.1	-6	102
22	CCCc1cc(=O)[nH]c(=S)[nH]1	·	12	1	1	108

# Single records, from the list above:
# CCCc1cc(=O)[nH]c(=S)[nH]1 in the list: ROMK mod = ·; STAT1 inh = 12; FLuc act counter = 1; FLuc inh counter = 1; STAT3 activator = 108
# O=C(COc1ccc(F)cc1Br)N1CCc2ccccc21 in the list: ROMK mod = ·; STAT1 inh = -71; FLuc act counter = 0.6; FLuc inh counter = 43; STAT3 activator = 88
# O=c1[nH]c(=O)n([C@H]2C[C@H](O)[C@@H](CO)O2)cc1F in the list: ROMK mod = ·; STAT1 inh = 7; FLuc act counter = 1.1; FLuc inh counter = -8; STAT3 activator = 96

# Only part of the results is shown; count on the stated rates, not on these rows.
